Assay outcomes from PubChem BioAssay.
KCNQ2 inh = KCNQ2 potassium channel inhibitors, primary screen, cell-based, CHO-K1, FluxOR thallium flux, B-score (AID 2156). O88943. 20 min; active compounds read low; only compounds with negative scores are shown here; some inactives read as strong as hits. B-score at 10 µM. 310,000 tested, 1.1% active;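 active = fluorescence ratio B-score at most minus 3 library SDs, with starting brightness B-score within 2 library SDs, cut at about -5.5 in these data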
Target sequence (O88943 whole entry, looked up): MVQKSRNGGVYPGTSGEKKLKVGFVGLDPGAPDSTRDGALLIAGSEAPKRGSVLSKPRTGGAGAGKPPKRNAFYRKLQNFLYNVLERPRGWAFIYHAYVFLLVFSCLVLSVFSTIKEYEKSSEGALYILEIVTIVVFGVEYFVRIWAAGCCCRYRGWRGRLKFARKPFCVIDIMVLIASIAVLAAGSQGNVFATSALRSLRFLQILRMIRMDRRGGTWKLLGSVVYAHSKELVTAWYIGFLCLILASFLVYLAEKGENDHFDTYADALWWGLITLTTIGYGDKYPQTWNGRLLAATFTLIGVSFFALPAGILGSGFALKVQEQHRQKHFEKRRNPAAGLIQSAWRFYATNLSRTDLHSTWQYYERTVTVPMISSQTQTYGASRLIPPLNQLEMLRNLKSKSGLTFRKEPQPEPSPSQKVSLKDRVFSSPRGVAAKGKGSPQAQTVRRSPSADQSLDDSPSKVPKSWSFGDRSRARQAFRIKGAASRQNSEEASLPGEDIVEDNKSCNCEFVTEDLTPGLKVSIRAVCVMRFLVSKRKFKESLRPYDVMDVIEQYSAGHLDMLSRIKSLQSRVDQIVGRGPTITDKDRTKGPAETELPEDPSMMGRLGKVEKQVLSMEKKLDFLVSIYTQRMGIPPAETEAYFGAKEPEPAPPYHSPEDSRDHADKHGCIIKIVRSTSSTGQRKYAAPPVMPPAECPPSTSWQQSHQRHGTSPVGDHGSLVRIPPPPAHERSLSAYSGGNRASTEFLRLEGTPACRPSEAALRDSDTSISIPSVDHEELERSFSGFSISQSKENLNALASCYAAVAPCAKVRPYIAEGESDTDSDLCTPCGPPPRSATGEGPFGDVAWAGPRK
KCNQ2 inh baseline = recorded beside KCNQ2 inh, whose call it bears; B-score; measured here: initial fluorescence intensity artifact check;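 brightness before thallium and not channel activity; 0 = typical well and far values either way flag optical interference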
* = called active by the depositor; i = inactive. This is a subset; count on the stated rates, not on these rows.

SMILES	KCNQ2 inh	KCNQ2 inh baseline
CC(=O)c1sc(NC(=O)c2ccc(C(C)(C)C)cc2)nc1C	i	-0.54
Cc1ccc(/C=C(\C#N)c2nc3ccccc3[nH]2)s1	i	0.06
Cc1cc(NC(=O)CSc2nnc(CNC(=O)c3ccccc3)o2)no1	i	0.03
O=C(NNC(=O)c1ccc(Br)o1)c1ccc(NC(=O)c2ccccc2)cc1	i	1.1
Cc1cccnc1NC(=S)Nc1ccc(Cl)c(Cl)c1	i	0.51
O=C(O)CC1(CC(=O)Nc2ccc3ccccc3c2)CCCCC1	i	-1.3
Cc1noc(C(=O)Nc2ccc(C#N)cc2)c1Cl	i	0.91
CS(=O)(=O)N(Cc1ccc(F)cc1)Cc1nc2ccccc2c(=O)[nH]1	i	-0.16
NS(=O)(=O)c1ccc(CCNc2ccnc3cc(Cl)ccc23)cc1	i	0.98
N=C1/C(=C\c2ccc(OC(=O)c3ccc(F)cc3)cc2)C(=O)N=C2SC(N3CCOCC3)=NN12	i	-0.22
O=C(c1ccc2c3n(nc2c1)-c1ccc(Cl)cc1CO3)N1CCOCC1	i	-1
CCOC(=O)c1cc(-c2ccc(F)cc2)n(CC(=O)Nc2nccs2)c1C	i	1.3
COc1ccc(N2C(=O)/C(=C\c3ccco3)N=C2SCC(=O)NC(C)(C)C)cc1Cl	i	-0.29
CCN(CC)C(=O)CN1CCN(Cc2ccc3c(c2)OCO3)CC1	i	1.2
O=C(CCN1CCN(c2ccccc2)CC1)N/N=C/c1ccc(O)c(O)c1O	i	-0.91
O=C(N/N=C/c1ccc[nH]1)c1ccc([N+](=O)[O-])cc1	i	0.01
CC(=O)Nc1ccc(S(=O)(=O)NNc2cccc(C)c2)cc1	i	1.3
O=C(NC(=S)NCCc1ccccc1)C1CCCCC1	i	-1.7
O=c1ccccn1Cc1c(F)cccc1Cl	i	-0.18
COc1cc(/C=C2/C(=O)N=C(N)N2C)cc(OC)c1OC	i	-3.3
O=C(/C=C/c1ccc(S(=O)(=O)N2CCOCC2)cc1)NC(=S)NCCCn1ccnc1	i	2
C=CCN=C(CC)C1=C(O)CCCC1=O	i	1.2
COCCn1c(=S)[nH]c2cc(C(=O)NCCCN3CCOCC3)ccc2c1=O	i	1.2
CCOC(=O)c1sc(=NC(=O)C2CC2)n(C)c1C	i	-0.45
Cc1ccc2occ(/C=N/NC(=O)c3ccccc3O)c(=O)c2c1	i	-0.04

6 entries from above in another layout.
KCNQ2 inh	KCNQ2 inh baseline	Structure
i	-0.45	CCOC(=O)c1sc(=NC(=O)C2CC2)n(C)c1C
i	-1.7	O=C(NC(=S)NCCc1ccccc1)C1CCCCC1
i	-1.3	O=C(O)CC1(CC(=O)Nc2ccc3ccccc3c2)CCCCC1
i	1.2	CCN(CC)C(=O)CN1CCN(Cc2ccc3c(c2)OCO3)CC1
i	1.2	COCCn1c(=S)[nH]c2cc(C(=O)NCCCN3CCOCC3)ccc2c1=O
i	-1	O=C(c1ccc2c3n(nc2c1)-c1ccc(Cl)cc1CO3)N1CCOCC1

The results go on.
SMILES	KCNQ2 inh	KCNQ2 inh baseline
CC(=O)c1ccc2noc(-c3ccccc3)c2c1	i	-0.85
O=[N+]([O-])c1ccccc1N/N=C/c1cc2ccccc2nc1Cl	i	0.56
COC(=O)c1cc(OC)c(OC)cc1NC(=S)N1CCOCC1	i	-0.03
Cc1ccc(-c2nnc(NCc3nc4ccccc4[nH]3)c3ccccc23)cc1S(=O)(=O)N1CCOCC1	i	0.18
COCCn1cnc2cc(C)c(C)cc21	i	-0.04
Fc1ccc(CNc2nc(-c3ccco3)cc(C(F)(F)F)n2)cc1	i	0.5
CC(C)[C@H](NC(=O)c1cc2cc(Cl)ccc2n1C)C(=O)N[C@@H](C(=O)O)c1ccccc1	i	-0.04
Cc1cc(OCCn2cnc3ccccc3c2=O)ccc1[N+](=O)[O-]	i	1.4
CCOC(=O)C1=C(C)N(C)C(C)=C(C(=O)OCC)C1c1ccsc1	i	1.5
Cc1ccc(C(=O)c2ccccc2C(=O)OCC(=O)NC(=O)NC(C)(C)C)cc1	i	1.1
COc1ccccc1N1C(=O)N(C(C)=O)C2C1Nc1ccccc1N2C (stereo unspecified)	i	-0.8
CCCCN(C(=O)C1CCCO1)c1c(N)n(CC(C)C)c(=O)[nH]c1=O (stereo unspecified)	i	0.11
Cc1ccc(CNC(=O)CCC2CCCN(C(=O)c3ccc4c(c3)OCO4)C2)o1 (stereo unspecified)	i	0.84
Cc1ccc(S(=O)(=O)NC(CC(C)C)C(=O)N2CCCCCCC2)cc1 (stereo unspecified)	i	0.03
Cc1cccc(NC(=O)[C@H](Cc2ccccc2)NC(=O)OCc2ccccc2)c1	i	-0.6
N#CC1=C(SCc2ccccc2)NC(=O)CC1c1ccco1 (stereo unspecified)	i	0.88
N#CCCN(C(=O)COC(=O)c1ccc2c(=O)n3c(nc2c1)CCC3)c1ccc(F)cc1	i	1.7
COc1cccc(CNC(=O)c2ccc(COc3ccccc3)cc2)c1	i	-0.23
O=C(NCc1ccccc1)C1CCC(CNc2c(N3CCCCC3)c(=O)c2=O)CC1 (stereo unspecified)	i	-1.4
CC1(C)CC(=O)c2c(oc3cc(O)c(O)cc23)C1	i	1.9
Cc1ccc(S(=O)(=O)Nc2ccc(N3CCOCC3)cc2)cc1C	i	0.12
Cc1nc(SCc2ccccc2C#N)n[nH]1	i	-1.3
Cc1oc(-c2ccoc2)nc1CN(CC1CCC(=O)N1)C(C)C (stereo unspecified)	i	1.1
COc1ccc(C2c3c(n[nH]c3C)CC(C)(O)C2C(C)=O)cc1OC (stereo unspecified)	i	1.6
COC(=O)CCC(=O)CN	i	1.9
The list continues:
SMILES	KCNQ2 inh	KCNQ2 inh baseline
O=C(Nc1nc(-c2ccc(Cl)s2)cs1)c1ccccc1	i	-0.04
Cc1ccc(S(=O)(=O)Cc2ccc(C(=O)NC3CCCCCC3)o2)cc1	i	1.9
COc1cc(/C=N/NC(=O)NC2CCCCC2)cc(OC)c1O	i	-0.86
O=c1cccccc1NN=C1CCCCCC1	i	-0.8
CCOc1ccc(N(CC(=O)NCCOc2ccc(C)cc2)S(=O)(=O)c2ccccc2)cc1	i	0.72
O=C(Nc1ccc(N2CCCC2)cc1)c1cc2ccccc2o1	i	1
O=C(NCCO)c1cccc(Nc2nc(-c3ccccc3)c3cc(Cl)ccc3n2)c1	i	0.27
Cc1cc(C)n2nc(SCC(=O)c3ccccc3)nc2n1	i	1.9
COc1ccccc1C(=O)N(C1=NC(C)CS1)c1ccc(Cl)cc1 (stereo unspecified)	i	-1.6
CN(C)S(=O)(=O)c1cc(NC(=O)CN2CCOCC2)ccc1Cl	i	0.07
CCOC(=O)[C@@H]1[C@H]2COc3ccc(Br)cc3[C@@H]2N2C(=O)N(c3ccccc3)C(=O)[C@@]12C	i	0.07
CC12CC(NC(=O)N1c1cccc(C(=O)NCc3ccccc3)c1)c1ccccc1O2 (stereo unspecified)	i	-0.06
Cc1ccc(-c2cc(C(=O)NCc3ccco3)c3ccccc3n2)s1	i	-0.09
CC(=O)c1sc2nc(-c3ccco3)ccc2c1N	i	0.74
Cn1c(=O)c(=O)n(C)c2cc(S(=O)(=O)N3CCN(c4ccc(F)cc4)CC3)ccc21	i	-0.39
CN(CC(=O)N1CCN(c2cccc(Cl)c2)CC1)S(=O)(=O)c1cccs1	i	0.79
CC[n+]1c(C)sc2c3ccsc3ccc21	i	1.1
CCOC(=O)CC(NC(=O)c1cc2cc(Br)ccc2oc1=O)c1cccc([N+](=O)[O-])c1 (stereo unspecified)	i	0.01
O=C1CCCc2sccc2N1	i	1.2
COc1ccc(C(=O)N/C(=C\c2ccccc2)C(=O)N2CCOCC2)cc1	i	-0.11
O=C(CCCOC(=O)c1ccc(O)cc1O)c1ccc(F)cc1	i	-0.12
CCOc1ccc(NC(=O)c2sc(N3CCOCC3)nc2-c2ccccc2)cc1	i	0.01
CC(C)Oc1cccc(OCCN2C(=O)c3ccccc3C2=O)c1	i	0.36
CCc1ccccc1NS(=O)(=O)c1cc2c3c(c1)CCN3C(=O)CC2	i	-1.1
O=C(O)CCSc1nc2ccccc2n1CCOc1ccccc1	i	-1.2
Next records follow:
SMILES	KCNQ2 inh	KCNQ2 inh baseline
Cc1ccc(NCc2nc(SCC(=O)Nc3ccccc3)n[nH]2)cc1	i	-1.7
CC(NC(=O)COC(=O)c1cc(NS(=O)(=O)c2ccc(Cl)c([N+](=O)[O-])c2)ccc1O)C1CC2CCC1C2 (stereo unspecified)	i	-0.52
Cc1ccc2nc(-c3ccccc3NC(=O)CCC(=O)O)c(=O)[nH]c2c1	i	0.16
CCCCC(=O)NC(=O)NC(c1ccccc1)c1ccccc1	i	-0.09
Cc1cc(C)cc(NCc2cc(=O)oc3cc(-c4ccccc4)c(O)cc23)c1	i	1.8
COc1ccccc1CNC(=O)COC(=O)c1cccc(S(=O)(=O)N2CCOCC2)c1	i	0.35
CCN(CC)c1ccc([N+](=O)[O-])cc1C(=O)N1CCOCC1	i	0.79
Cc1cc(O)c(C2=Nc3ccccc3SC(c3ccc(Cl)cc3)C2)c(=O)o1 (stereo unspecified)	i	1.1
Cc1ccc(NC(=O)CSc2sc3c(O)cc(=O)[nH]c3c2C#N)cc1C	i	1
CC(C)NC(=O)CCS(=O)(=O)c1cccc2nonc12	i	0.42
CCOC(=O)c1ccc2c(c1)N(CC(=O)N1CCCCC1)C(=O)C(C)(C)O2	i	-1
CC(C)c1ccc(/C=N/NC(=O)C2CCCC2)cc1	i	-0.96
CCOC(=O)c1cc2sc(C)cc2n1CCCN1C(=O)c2ccccc2C1=O	i	-0.78
COc1ccc(C2C(C(=O)c3ccccc3)=C(C)Nc3nc4ccccc4n32)c(OC)c1 (stereo unspecified)	i	-0.8
CCOC(=O)c1sc(SC)nc1N	i	0.35
CCOc1ccc(-c2nnn(CC(=O)NCc3ccc(OC)cc3)n2)cc1OCC	i	1.5
O=c1nc(-c2ccccc2)c(-c2ccccc2)n[nH]1	i	1.5
COc1ccccc1CNC(=O)c1ccc(-c2ccccc2C(F)(F)F)o1	i	-0.31
COc1ccc(-c2cc(C(F)(F)F)nc(N3CCOCC3)n2)cc1OC	i	-0.62
COC(=O)Cn1c2ccc(Cl)cc2c2nc(C)sc21	i	-0.65
CC1(C)CC(=O)c2cc(C(=O)Nn3cnnc3)c(=O)n(-c3ccccc3)c2C1	i	0.27
O=C(NCCc1ccccc1)c1ccc2c(c1)N(Cc1ccccc1)C(=O)CS2=O (stereo unspecified)	i	0.75
CCOC(=O)c1c(CN(CC)CC)oc2ccc(OC)cc12	i	-0.22
Oc1ccc(Cl)cc1CNc1ccccn1	i	1.1
O=C(Nc1nnc(C2COc3ccccc3O2)o1)c1ccc(F)cc1 (stereo unspecified)	i	1.8

Seven records picked at random from the list so far, as already listed:
SMILES	KCNQ2 inh	KCNQ2 inh baseline
Cc1ccc2nc(-c3ccccc3NC(=O)CCC(=O)O)c(=O)[nH]c2c1	i	0.16
COc1cc(/C=N/NC(=O)NC2CCCCC2)cc(OC)c1O	i	-0.86
Cc1ccc2occ(/C=N/NC(=O)c3ccccc3O)c(=O)c2c1	i	-0.04
N#CCCN(C(=O)COC(=O)c1ccc2c(=O)n3c(nc2c1)CCC3)c1ccc(F)cc1	i	1.7
CCCCC(=O)NC(=O)NC(c1ccccc1)c1ccccc1	i	-0.09
Cc1cc(C)cc(NCc2cc(=O)oc3cc(-c4ccccc4)c(O)cc23)c1	i	1.8
Cc1ccc(NC(=O)CSc2sc3c(O)cc(=O)[nH]c3c2C#N)cc1C	i	1

Further results
SMILES	KCNQ2 inh	KCNQ2 inh baseline
O=C(COc1ccccc1)N1CCN=C1SCc1cccc(F)c1	i	0.32
Cc1ccc(C)c2nc3sc(C(=O)N4CCCc5ccccc54)c(N)c3cc12	i	2.3
CCOC(=O)C1CCCN(C(=O)CCC(=O)Nc2ccc3nc(N4CCOCC4)cc(C)c3c2)C1 (stereo unspecified)	i	-0.03
COc1ccc([N+](=O)[O-])cc1NC(=S)NC(NC(=O)C(c1ccccc1)c1ccccc1)C(Cl)(Cl)Cl (stereo unspecified)	i	-2.2
CN1CCN(C(=O)c2cc3c(s2)-c2ccccc2S(=O)(=O)C3)CC1	i	-0.65
COc1ccc(/C=C/c2cc(C(F)(F)F)[nH]c(=O)n2)cc1OC	i	0.69
COc1ccc(OCC(O)CN2CCOCC2)cc1 (stereo unspecified)	i	2
CC1=C(C#N)c2nc(N)c(C#N)c(C)c2/C1=C\c1ccc(OCC(=O)O)c(Cl)c1	i	-0.44
CCOC(=O)c1c(C)[nH]c(C(=O)OCCOc2ccccc2C)c1C	i	2
COc1ccccc1-c1nnc(C2CCN(S(=O)(=O)c3ccc([N+](=O)[O-])cc3)CC2)o1	i	0.98
CCC(CO)n1cnnc1-c1ccncc1 (stereo unspecified)	i	-0.48
Cc1ccc(C(=O)N2CCc3ccccc3C2)cc1S(=O)(=O)N1CCOCC1	i	0.11
CCOC(=O)CSc1[nH]c(=O)cc(C)c1C#N	i	1.7
Cc1ccc(S(=O)(=O)CCC(=O)Nc2ccc3nc(C)sc3c2)cc1	i	-1.5
O=C(/C=C/c1ccc(NC(=O)c2ccccc2-c2ccccc2C(=O)O)cc1)c1ccccc1	i	0.08
O=C(CSc1nnnn1-c1ccc(Cl)cc1)NC(=O)Nc1ccc2c(c1)OCCO2	i	-1.9
CCOC(=O)N1CCN(C(=O)Nc2sc3nc4n(c(=O)c3c2C)CCC(C)CC4)CC1 (stereo unspecified)	i	-0.43
COc1cccc(C2NC(=O)NC(C)=C2C(=O)Nc2ccccc2C)c1 (stereo unspecified)	i	1.2
COc1ccccc1N(CC(=O)NC1CCCCC1)S(=O)(=O)c1ccccc1	i	-0.4
C1COCCNCCOCCOCCN1	i	-0.57
CSc1ccc2c(c1)C(N1CCN(C)CC1)Cc1ccc(F)cc1S2 (stereo unspecified)	i	-1.4
Fc1ccc(OCCOCCOc2cccc3[nH]ccc23)cc1	i	-1.2
Cc1[nH]c(=S)[nH]c(=O)c1Cc1ccc(OCC(C)C)cc1	i	0.11
COc1c(-c2ccc(O)c(O)c2)oc2cc(O)cc(O)c2c1=O	i	0.85
